Mtb hypoxia inh: reduces hypoxia-regulated biosensor signal in M. tuberculosis; M. tuberculosis hypoxia-regulated fluorescent reporter, fluorescence; fluorescence inhibition, % (concentration not given with the values); 0.1% of 300,000 active;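 active = 35 to 45% if threefold the growth effect, above 45% if 1.5-fold the growth effect; inactive = the rest, general growth blockers included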;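 note: wells of about 50 µL received 100 nL stock; 0% = vehicle wells and 100% = reference inhibitor wells; whole bacteria with a GFP reporter of the hypoxia response; strong numbers were not always called active; many hits fall short of the cut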
BJeLR lethal: BJeLR cell viability loss; 0.17% of 300,000 active; AID 1554; inhibition, % (no concentration beside the values); BJeLR (HRASV12) viability, CellTiter-Glo ATP luminescence, 48 h; reference of the scale not given here;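 active = replicate mean above 50%; inconclusive = above 50% but judged a plate artefact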;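 note: 50 nL library stock added to about 25 µL; numbers are from one replicate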
PrP 5UTR inh: inhibition of PrP 5' UTR reporter expression; cell-based PrP 5' UTR mRNA reporter, plate reader; inhibition, % (test concentration not listed); 0.35% of 340,000 active; AID 488862;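 active = every replicate at 50% or more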;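 note: 0 = median of the neutral control wells; tested in H4 reporter cells; numbers are from one replicate; inactives centre near -14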
Sa RN4220 lethal: kills Staphylococcus aureus RN4220 | S. aureus RN4220 growth, OD600, 16 h | inhibition, % (test concentration not listed) | 0.33% of 330,000 active | AID 1259311;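 active = z-score of -3 or lower and OD600 up to 0.18 on both plates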;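 note: plate controls were untreated cells for no effect and reference antibiotic for full effect; stock transfer was 100 nL into about 80 µL; one replicate is shown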
Bead autofluor: compound fluorescence in toxin protease inhibitor counterscreen | compound autofluorescence counterscreen, microsphere flow cytometry; active compounds read high | fluorescence intensity (test concentration not listed) | 3.1% of 360,000 active | AID 624483;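 active = at least 3 SD above the mean of all compounds, about 16000 in these data; inconclusive = too few beads counted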;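 note: 100 nL of 1 mM stock went into each well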
ugtP null kill: kills S. aureus RN4220 lacking UgtP | S. aureus RN4220 ugtP deletion, OD600 growth, 16 h; some inactives read as strong as hits | growth inhibition, % (concentration not given with the values) | 0.54% of 330,000 active | AID 1259309;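 active = z-score under -3 and OD600 up to 0.15 on both plates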;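 note: plate controls were untreated wells for no effect and antibiotic for full effect; wells of about 80 µL received 100 nL stock; the first replicate is given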
Mtb hypoxia inh growth: further read-out of Mtb hypoxia inh, marked with its call; growth inhibition, %; measured here: M. tuberculosis growth (absorbance);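 0% = vehicle and 100% = reference antibiotic; read after six days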
Active calls of the source: *; ? = inconclusive; · = not tested or not shown.

SMILES	Mtb hypoxia inh	Mtb hypoxia inh growth	BJeLR lethal	PrP 5UTR inh	Sa RN4220 lethal	Bead autofluor	ugtP null kill
CC(c1ccccc1)c1nnc(N)s1 (configuration not stated)	0	13	3	-3	-3.0	4791	5
CCOC(=O)c1c(C)[nH]c(C(=O)COC(=O)COc2ccccc2C)c1C	-3	4	5	-13	-5.7	2053	-6
Cc1ccc(/C=C/C(=O)O)cc1S(=O)(=O)N1CCC(Cc2ccccc2)CC1	15	0	16	-1	0.3	4422	2
O=C(COc1ccc([N+](=O)[O-])cc1)NN=C1CCCC1	-4	1	-6	4	0.6	5704	-1
C=CCNC(=O)c1cc2c(=O)n3cccc(C)c3nc2s1	1	-1	3	3	1.9	3921	1
N#Cc1cc(C(=O)c2ccccc2OCC(=O)Nc2ccccc2)cn(C2CCCCC2)c1=O	3	5	-4	12	-0.2	1891	-2
O=C(Cn1cnc2c(cnn2-c2ccccc2)c1=O)NCCc1ccccc1	4	12	-2	-9	3.0	3009	-3
Cc1ccc(-c2nnn(CC(=O)Nc3ccccc3-c3ccccc3)n2)c(-n2cnnn2)c1	9	3	-7	-17	24	2809	18
O=C(Nc1ccccn1)c1ccc2ccccc2n1	10	-14	-11	-126	2.5	4694	0
CS(=O)(=O)N(CC(=O)Nc1cc(Cl)ccc1Cl)c1ccccc1Cl	-1	-1	-3	12	1.6	15525	-16
O=c1cc(-c2ccccc2)nc(N2CCCCC2)[nH]1	4	19	-16	-16	4.7	6122	-4
COc1cccc(C(=O)Nc2cccc(SC)c2)c1	·	·	5	-91	4.8	4612	-11
Cc1cc2c(C)nc(NN=Cc3ccc([N+](=O)[O-])cc3)nc2o1	1	11	·	·	5.0	·	-4
Cc1ccc(S(=O)(=O)NNC(=O)C2Cc3c(ccc4ccccc34)O2)cc1 (configuration not stated)	13	4	-8	-6	14	3313	1
O=S(=O)(c1ccc(SCCOc2ccccc2)nc1)N1CCCC1	-2	-1	·	7	3.3	5543	11
CC(C)C(c1nnnn1C1CCCCC1)N1CCN(c2ncccn2)CC1 (configuration not stated)	2	2	-5	3	7.0	3214	7
COC(=O)c1ccc(NC(=O)CSc2nnc(-c3cccnc3)o2)cc1	6	1	-2	-33	3.6	5393	2
COc1cc(/C=C/C(=O)OCC(=O)N2c3ccccc3NC(=O)C2(C)C)cc(OC)c1OC	12	10	·	-8	8.0	3462	1
CCCCc1c(C)[nH]c(C(=O)OCC)c1C	5	0	-8	-11	1.7	4435	4
Cc1cccc(-c2nc(CS(=O)CC(=O)NC3CCCC3)c(C)o2)c1 (configuration not stated)	-2	10	·	-2	-15	5030	-3
CCC/C=C1/CCCOC(C(=O)NCc2ccccc2)(C(F)(F)F)C1 (configuration not stated)	·	·	20	-15	·	2757	·
COCn1c(COc2ccc3ccccc3c2)nc2ccccc21	·	·	-6	-80	2.0	4079	7
COc1cccc(OCC(=O)Nc2ccccc2C(=O)Nc2ccc(C(=O)O)cc2)c1	-3	14	-4	-27	2.2	5696	-3
O=C(O)c1cccc(Cn2c(Cl)c(/C=N/NC(=O)c3cccc(O)c3)sc2=O)c1	·	·	11	-20	·	3458	·
Cc1c(Cl)cccc1NC(=O)CCC(=O)NN=Cc1ccco1	12	15	·	·	0.8	·	5
O=C(CN(Cc1ccccc1F)C(=O)Cn1nnc(-c2cccs2)n1)NCC1CCCO1 (configuration not stated)	4	6	-5	-23	5.8	6862	13
c1csc(-c2nc(-c3ccc(-c4ccon4)s3)no2)c1	2	-2	1	-72	6.5	6089	-5
Cc1cc(NC(=O)c2cccs2)cc(-c2nc3ncccc3o2)c1O	1	8	-2	-8	2.3	5653	-1
CCCCNC(=O)COC(=O)c1cc(C)oc1C	3	0	6	-13	1.9	3477	0
O=S(=O)(NCC1(N2CCOCC2)CCCCC1)c1ccc(F)cc1	12	-1	14	-20	6.3	?	8
C=CCOc1c(Br)cc(CNn2c(C)n[nH]c2=S)cc1OCC	16	3	7	-36	2.2	4262	14
CC1CCCCN1C(=O)CSc1nnc(-c2cccnc2)o1 (configuration not stated)	8	5	-8	-15	-2.6	3303	6
Cc1ccc(NC2=C(Cl)C(=O)OC2OC(=O)c2ccccc2)c(C)c1 (configuration not stated)	·	·	-2	-20	·	2439	·
Cc1ccc(OCC(O)CN2CCN(CC(O)COc3ccc(C)cc3)CC2)cc1 (configuration not stated)	2	-2	2	-6	0.3	17745*	11
O=C(CN(c1ccccc1)S(=O)(=O)c1ccccc1)Nc1ccccc1C(=O)NCc1ccco1	7	4	-14	-12	2.5	2144	-13
COc1ccc(C2(O)CCN(C(=O)Cc3cccnc3)CC2)cc1	·	·	4	-44	0.1	4577	4
Cc1ccc(C(=O)OCC(=O)N(CC(C)C)c2c(N)n(Cc3ccccc3)c(=O)[nH]c2=O)o1	0	5	3	-27	0.9	5365	10
C#CCOCCOCCOCCNc1nc(N2CCN(C(=O)C(CCCCN)n3cc(C(N)CC(N)=O)nn3)CC2)nc(N2CCN(C(=O)C(C(C)O)n3cc(C(N)CCCCN)nn3)CC2)n1 (configuration not stated)	8	4	·	·	8.2	·	1
O=C(O)c1cc(Cl)c2c(c1)OCO2	3	3	0	-14	4.6	3614	7
COc1ccc(CCNC(=O)CN2C(=O)NC(C)(c3ccc([N+](=O)[O-])cc3)C2=O)cc1 (configuration not stated)	11	0	4	-8	7.0	3260	3
CC1CCCCN1CC(=O)NC(=O)NCc1ccccc1 (configuration not stated)	12	11	-10	-33	2.9	10426	14
CN1CCN(NC(=O)/C=C/c2ccc(C(C)(C)C)cc2)CC1	14	3	3	-42	3.9	5297	5
Nc1ccccc1C(=O)NCCN1CCNC1=O	4	7	6	-30	6.3	·	12
CC(=O)c1c(C)nn(CC(O)Cn2c3c(c4cc(C)ccc42)CCCC3=O)c1C (configuration not stated)	·	·	·	-12	2.8	4319	5
COc1ccccc1NC(=O)N1CCN(c2cccc(C(F)(F)F)c2)CC1	1	1	-3	-23	1.1	23145*	-1
O=C(CCn1c(=O)[nH]c2ccccc2c1=O)Nc1ccccc1	3	4	-6	-17	2.3	4406	2
Cc1ccc(C=NNC(=O)c2ccccc2OCc2cccc(Br)c2)o1	6	3	·	·	1.1	·	10
O=C(NCCN1CCOCC1)/C(=C\c1ccccc1Cl)NC(=O)c1ccccc1	-7	-2	-2	-13	-0.8	4003	1
COc1ccc(CCNC(=O)C(=O)NCc2ccc(C(C)C)cc2)cc1OC	-9	-3	6	8	6.9	24221*	6
Cc1nc(SCC(=O)N2CCCc3ccccc32)c2oc3ccccc3c2n1	20	11	-11	-20	15	8315	5

Pulled by compound from the list above, 6 records:
SMILES	Mtb hypoxia inh	Mtb hypoxia inh growth	BJeLR lethal	PrP 5UTR inh	Sa RN4220 lethal	Bead autofluor	ugtP null kill
CC1CCCCN1CC(=O)NC(=O)NCc1ccccc1 (configuration not stated)	12	11	-10	-33	2.9	10426	14
CC(=O)c1c(C)nn(CC(O)Cn2c3c(c4cc(C)ccc42)CCCC3=O)c1C (configuration not stated)	·	·	·	-12	2.8	4319	5
Cc1nc(SCC(=O)N2CCCc3ccccc32)c2oc3ccccc3c2n1	20	11	-11	-20	15	8315	5
CN1CCN(NC(=O)/C=C/c2ccc(C(C)(C)C)cc2)CC1	14	3	3	-42	3.9	5297	5
COc1ccc(CCNC(=O)C(=O)NCc2ccc(C(C)C)cc2)cc1OC	-9	-3	6	8	6.9	24221*	6
Cc1ccc(C=NNC(=O)c2ccccc2OCc2cccc(Br)c2)o1	6	3	·	·	1.1	·	10

Next part
SMILES	Mtb hypoxia inh	Mtb hypoxia inh growth	BJeLR lethal	PrP 5UTR inh	Sa RN4220 lethal	Bead autofluor	ugtP null kill
O=C1/C(=C\c2cc3c(cc2Br)OCO3)N2CCC1CC2	-1	-5	8	-20	2.4	2557	-3
Cc1cc(C)c2c(N=NN3CCCCC3)[nH]nc2n1	-6	7	2	-8	13	1935	54
CC1=CC(C)(C)Nc2ccc(OC(=O)C(Cc3ccccc3)N3C(=O)C4CCCCC4C3=O)cc21 (configuration not stated)	·	·	-1	-37	-2.2	4168	-2
CC1CN(C(=S)SCC(=O)c2ccccc2)CC(C)O1 (configuration not stated)	15	23	-24	-13	1.6	2297	2
NS(=O)(=O)c1ccc(CCNC(=O)c2ccc(Cl)cc2[N+](=O)[O-])cc1	-2	16	-5	-20	4.3	4128	1
CCCc1nc2c(=O)n(C)c(=O)[nH]c2n1C	·	·	-10	-13	·	2216	·
N#Cc1cc(C(=O)c2ccccc2O)cn(-c2ccc(Cl)cc2)c1=O	·	·	6	-29	·	4729	·
Nc1nc(NCCOCCO)nc(NCC2CCCO2)c1[N+](=O)[O-] (configuration not stated)	-3	-4	-1	0	2.7	6384	11
Cc1ccc(C(=O)C(C)N2C(=O)NC(C)(c3ccccc3)C2=O)cc1 (configuration not stated)	15	-5	0	-23	7.0	?	2
CC1CN(C(C)CO)C(=O)Cc2cc(NS(=O)(=O)c3ccc(F)cc3)ccc2OC1CN(C)Cc1ccc(C(=O)O)cc1 (configuration not stated)	1	2	·	·	3.8	·	-5
O=C(CC(c1ccccc1)c1ccccc1)Nc1ccc(Cl)cn1	·	·	6	-24	·	3311	·
COC(=O)[C@]1(Cc2ccccc2)NC(c2ccc(-c3cc(C(C)=O)cs3)cc2)C2C(=O)N(C)C(=O)C21 (some centres not stated)	14	3	·	·	5.4	·	14
Cc1ccc(S(=O)(=O)N(C(=O)c2ccncc2)c2ccc(OC(=O)c3ccncc3)cc2)c(C)c1	-4	4	-5	-36	5.3	2127	1
CCOC(=O)Nc1ccc2c(c1)N(C(=O)CCN(C)C)c1ccccc1CC2	1	-6	-6	-18	0.1	3455	7
Cc1cc(C)cc(OCC(O)CN2CCN(C(=O)c3ccco3)CC2)c1 (configuration not stated)	7	6	-1	-32	-2.8	3307	0
c1ccc2c(c1)Cn1nc(Cc3nc4c(s3)CCCC4)nc1-2	25	-20	-3	-22	-9.9	3157	-2
COc1ccc(NC(=O)CN(C)C(=O)c2cccc(NS(=O)(=O)c3ccc(Br)cc3)c2)cc1	6	-3	6	-22	1.0	·	2
Cc1ccc2nc3n(c2c1)CCCN3	10	10	11	1	4.5	3116	-1
Cc1ccc(N(CC(=O)N=Nc2c(O)[nH]c3ccccc23)S(C)(=O)=O)c(C)c1	0	1	1	-15	4.2	4011	6
Cc1cccc(CNC(=O)c2ccccc2NC(=O)C2=CSCCO2)c1	-14	4	4	-6	2.2	3575	-11
CC(C)c1nnc(NC(=O)CCC(=O)NC2CCCCC2)s1	-14	8	15	·	0.9	·	-1
Cc1ccc(NC(=O)NC(=O)CSc2nnnn2C)c(C)c1	8	9	-1	-36	1.9	20545*	4
Cc1cccc(N2C(=O)/C(=C/N3CCN(C(=O)c4ccco4)CC3)C(=O)NC2=S)c1	·	·	-3	-12	·	3469	·
O=S(=O)(c1cccs1)n1cnc2ccccc21	10	6	-4	-2	7.0	2445	-4
Cc1ccsc1/C=N/N=C/c1sccc1C	·	·	21	-85	·	3635	·
CC(C)OP(=O)(c1ccc(N(C)C)cc1)C(O)c1c(Cl)cccc1Cl (configuration not stated)	-2	0	0	-25	1.1	4528	-7
COC(=O)CC1C(=O)NCCN1C(=O)CSc1nc2ccccc2c(=O)n1CC(C)C (configuration not stated)	5	3	-1	-5	-1.0	4176	2
O=C(NCCc1ccccn1)C(F)(F)C(F)(F)C(F)(F)C(F)(F)C(F)(F)C(F)F	1	4	-10	6	-1.1	2012	10
COc1cccc(C2=CC(c3ccccc3)n3nnnc3N2)c1 (configuration not stated)	14	16	5	-85	16	8035	12
O=C(NCc1ccccc1)C1=C[C@@H](C2CC2)C[C@@H](OCCCCO)O1	·	·	-2	-14	·	3158	·
CCc1cc(C(=O)N2CCCC(C(=O)c3cccc(OC(C)C)c3)C2)n(C)n1 (configuration not stated)	8	-4	3	-27	6.7	4734	1
O=C(c1ccc(-c2ccccc2)cc1)C1CCCN(C(=O)c2ccncc2)C1 (configuration not stated)	0	2	5	-14	7.5	3169	5

High-throughput results deposited in PubChem BioAssay by several laboratories.
